MARV entry inh = Marburg virus entry inhibition. Marburg virus pseudotyped entry inhibition, cell reporter; control for the full effect not named in the record; about a third of the inactives were read at about 46 µM. Potency, µM (titrated, usually from 37.8 µM), for the others: at the top dose activity change, negative = inhibition, hits mostly inhibitors. 1.8% of 300,000 active. AID 540276; active = well fitted inhibition curve with a large enough effect; inconclusive = small, poorly fitted or top-dose-only effect, or effect the other way; inactive = flat fitted curve, though single readings scatter; tested in HEK293 cells; about a fifth of its hits are not listed in these tables; also: % is scaled to controls: 0 for no effect and ±100 for the full control effect; luciferase read-out
Cruzain inh Det = blocks cruzain activity in presence of Triton detergent. P25779. purified cruzain, Z-FR-AMC fluorescence, 0.01% Triton. Potency, µM, for the others: max response, negative = inhibition, usual class: inhibitors. 0.43% of 200,000 active. AID 1478; active = well fitted curve in the direction sought with a large enough effect; inconclusive = small, poorly fitted or top-dose-only effect, or another doubt; inactive = no such curve, though single readings can be large; an effect the other way counts as inactive or inconclusive;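 also: plate controls were neutral wells for no effect and buffer without enzyme for full effect; nearly all actives have a fitted effect of over 40% in size; top concentration of the series not given in the record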
Target sequence (P25779 123-467 limits assumed): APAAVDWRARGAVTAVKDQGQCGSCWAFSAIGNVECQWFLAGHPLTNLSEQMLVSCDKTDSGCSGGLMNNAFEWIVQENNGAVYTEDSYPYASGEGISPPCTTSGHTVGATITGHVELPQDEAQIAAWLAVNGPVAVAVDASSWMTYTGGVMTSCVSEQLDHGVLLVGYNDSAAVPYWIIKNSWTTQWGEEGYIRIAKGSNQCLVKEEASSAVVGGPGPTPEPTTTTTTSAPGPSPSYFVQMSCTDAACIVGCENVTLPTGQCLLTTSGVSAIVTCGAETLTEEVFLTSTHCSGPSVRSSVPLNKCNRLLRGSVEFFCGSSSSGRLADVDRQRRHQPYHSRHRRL
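Sodium acetate buffer (100 mM, pH 5.5) containing 5 mM DTT and 0.01% Triton X-100 hosted 1.5 nM cruzain and test compound for 15 min at room temperature. Cleavage of 2 uM Z-FR-AMC was then tracked by fluorescence.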
Cruzain noTriton = blocks cruzain activity in detergent-free assay; P25779; Potency, µM, for the others: max response, negative = inhibition, usual class: inhibitors; 2.3% of 200,000 active; purified cruzain, Z-FR-AMC fluorescence, no detergent; AID 1476; active = well fitted curve in the direction sought with a large enough effect; inconclusive = small, poorly fitted or top-dose-only effect, or another doubt; inactive = no such curve, though single readings can be large; an effect the other way counts as inactive or inconclusive;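 also: plate controls were enzyme without inhibitor for no effect and buffer without enzyme for full effect; nearly all actives have a fitted effect of over 40% in size; top concentration of the series not given in the record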
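Purified cruzain at 1.5 nM, pre-incubated 15 min with compound at room temperature in 100 mM sodium acetate pH 5.5, 5 mM DTT, 0.00005% Triton X-100. Reaction started with 2 uM Z-FR-AMC; AMC fluorescence increase over 60 s gives rate.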
StopGo reporter = FMDV 2A StopGo reporter, luciferase signal | Potency, µM (top dose mostly 57.9 µM), without a hit: top-dose signal change, negative = less light | 1.2% of 410,000 active | human cells with a luciferase reporter of 2A StopGo recoding; control for the full effect not named in the record; active = well fitted falling curve with a large enough effect; inconclusive = small, poorly fitted or top-dose-only effect; inactive = no such curve, though single readings can be large or run the other way; tested in HEK293T cells; also: % is scaled to controls: 0 for no effect and ±100 for the full control effect; nearly all actives have a fitted effect of over 45% in size; luciferase light after 4 h
Lassa entry inh = inhibitors of Lassa virus binding or cell entry; Lassa virus pseudotype entry inhibition, cell reporter; control for the full effect not named in the record; Potency, µM (highest dose often 37.9 µM), without a hit: at the top dose activity change, negative = inhibition, usual class: inhibitors; 1.2% of 300,000 active; AID 540256; active means well fitted inhibition curve with a large enough effect; inconclusive means small, poorly fitted or top-dose-only effect, or effect the other way; inactive means flat fitted curve, though single readings scatter; tested in HEK293 cells; also: % is scaled to controls: 0 for no effect and ±100 for the full control effect; nearly all actives have a fitted effect of over 50% in size; luciferase read-out
RE007 growth inh = less growth of the S. pombe RE007 Vpr strain | S. pombe RE007 Vpr strain, BacTiter-Glo ATP luminescence, 24 h; control for the full effect not named in the record | 0.21% of 360,000 active | Potency, µM (doses to about 92.2 µM), without a hit: at the top dose activity change, negative = less growth; active = well fitted falling curve with a large enough effect; inconclusive = small, poorly fitted or top-dose-only effect; inactive = no such curve, though single readings can be large or run the other way;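 also: % is scaled to controls: 0 for no effect and ±100 for the full control effect; nearly all actives have a fitted effect of over 50% in size; the assay follows cell death caused by Vpr and the record does not say whether a fall means rescue or toxicity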
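Fission yeast RE007 carrying one integrated HIV-1 vpr copy, seeded at OD 0.01 in PMG+AL medium with 23 nL pinned compound. Grown 24 h at 30 degrees; viability read by BacTiter-Glo luminescence after 5 min.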
SARS PLpro yeast = SARS-CoV PLP inhibition in yeast; S. cerevisiae expressing SARS-CoV PLpro, growth rescue; control for the full effect not named in the record; Potency, µM (top dose mostly 32.9 µM), for the others: top-dose activity, positive = growth rescue; 0.19% of 330,000 active; also: 0% is about no effect; nearly all actives have a fitted effect of over 55% in size; growth read by luminescence after 48 h
NS1 inh = influenza NS1 inhibition; AID 2326; 0.4% of 270,000 active; S. cerevisiae slowed by influenza A NS1, growth recovery by OD600; Potency, µM (series often up to 46.1 µM), inactives show at the top dose activity, positive = more growth; also: actives are rising curves; nearly all actives have a fitted effect of over 50% in size
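A cell-based growth assay was used: compounds that relieve NS1-induced slow growth of budding yeast raise OD600. Assay medium was yeast nitrogen base with ammonium sulphate and -URA supplement, pH 6.0, with 2% galactose.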
The depositor's hits bear a star; ? = inconclusive; . = no result given; & = joins results of further samples; [ ] = dose if it differs, or a comment. Unless noted, calls follow the shape of the dose curve; as a rule, active means well fitted rising curve with a large enough effect; inconclusive means small, poorly fitted or top-dose-only effect; inactive means no such curve, though single readings can be large or run the other way. Potency is read from the fitted curve at half-maximal effect.

Structure	MARV entry inh	Cruzain inh Det	Cruzain noTriton	StopGo reporter	Lassa entry inh	RE007 growth inh	SARS PLpro yeast	NS1 inh
COc1cccc(CN2CCN(CC(=O)NCCc3ccccc3)CC2)c1	?	.	.	0%	-14%	6%	2%	9%
O=C(/C=C/c1cccs1)Nc1ccc(S(=O)(=O)Nc2ncccn2)cc1	15%[46.1 µM]	.	.	-19%	7%	-1%	1%	-2%
CCOC(=O)Cn1nnnc1CN(Cc1ccc(OC)cc1)Cc1cc2cc(C)cc(C)c2[nH]c1=O	-18%	-0.9%	?	.	-14%	-13%	1%	-50%
Cc1nc2ccccc2c(=O)n1-n1cnnc1	7%	3.5%	-5%	15%	-2%	16%	3%	-1%
Cc1csc(NC(=O)CSCC(=O)Nc2ccccc2)n1	?	-3.7%	5%	-16%	-2%	7%	7%	2%
CCC(C)(C)NC(=O)CN(C(=O)C(=O)Nc1ccc2c(c1)OCCO2)C(C)(C)CC	-17%[46.1 µM]	.	.	12%	6%	3%	0%	-2%
CCOc1ccc(S(=O)(=O)NCCC(=O)NCCOc2ccccc2)cc1	-21%[46.1 µM]	.	.	-8%	22%	27%	?	.
CCN(CC)N=Nc1ccc(S(=O)(=O)Nc2c(C)n(C)n(-c3ccccc3)c2=O)cc1	.	.	.	-11%	.	-1%	?	10%
CN1CCN(C(=O)c2cc(Cl)ccc2NC(=O)c2ccc(Cl)cc2Cl)CC1	23%	.	.	15%	3%	-17%	-4%	-3%
Cc1ccc(CNC(=O)/C=C/c2ccc(Br)o2)cc1	10%	-16%	-1%	9%	?	-7%	.	-14%
c1cnc(Oc2ccc(-c3nnco3)cc2)cn1	-21%	-1.8%	-3%	2%	0%	22%	10%	3%
CCOc1cc(S(=O)(=O)N2CCN(Cc3ccccc3)CC2)ccc1Br	-22%	2.5%	6%	-24%	-28%	-18%	.	-95%
CC(=O)Nc1ccc(S(=O)(=O)Nc2nc(C)cc(-n3nc(C)cc3C)n2)cc1	22%	0.6%	-6%	-4%	0%	?	5%	-3%
CNC(=S)NCc1ccc(OC)cc1	-3%	-1.5%	7%	-4%	-2%	-9%	4%	17%
O=C(CN1C(=O)/C(=C/c2ccc(C(F)(F)F)cc2)Sc2ccccc21)NCCCN1CCOCC1	.	.	.	-10%	.	11%	-1%	-5%
O=C(NC(Cc1ccccc1)C(=O)NC(Cc1ccccc1)C(=O)O)c1ccccc1 (stereo not drawn)	0%[14.2 µM]	.	.	-7%	5%	14%	1%	-3%
O=[N+]([O-])c1cc(S(=O)(=O)N2CCCCC2)ccc1NCc1cccc(Cl)c1	?	-3.9%	?	-9%	-8%	-2%	7%	25%
CCN1CCOC(CC(=O)Nc2cccc([N+](=O)[O-])c2)C1=O (stereo not drawn)	2%[46.1 µM]	.	.	-5%	7%	?	-23%	-113%
CCCN1CCN(CCNC(=O)Nc2cc(C)ccc2C)CC1	2%	.	.	-19%	.	-10%	2%	1%
O=C(Nc1ccccc1)/C(=C/c1ccccc1)c1ccccc1	?	-3.0%	13µM*	?	1%	-9%	-12%	17%
CN1CCN(S(=O)(=O)c2cccc(S(=O)(=O)c3ccc(Cl)c(Cl)c3)c2)CC1	0%&0%	2.2%	-7%	0%	26%	-1%	3%	11%
Cc1ccc(N2CC(C(N)=O)CC2=O)cc1 (stereo not drawn)	12%	3.3%	-3%	-4%	18%	-10%	5%	-2%
COc1ccccc1C1(CC(=O)N2CCCCC2)CCOC(C(C)C)C1 (stereo not drawn)	?	3.7%	4%	-6%	-4%	3%	0%	0%
CCCc1c(C(=O)N/N=C(\C)CCc2ccccc2)nnn1-c1nonc1N	.	.	.	4%	.	14%	-2%	-9%
COc1ccc(CCN2C(=O)N(c3ccc(C)cc3)C(=O)C2CC(=O)Nc2ccc(OC)cc2)cc1 (stereo not drawn)	?	-4.1%	0%	6%	?	.	.	.
CC1(C)C(c2ccccc2)=NC(c2ccc(Br)cc2)N1O (stereo not drawn)	?	.	.	4µM*	12%	1%	2%	-4%
COc1ccccc1N(CC(=O)NCC1CCCO1)C(=O)CCC(=O)Nc1cc(C)on1 (stereo not drawn)	17%[46.1 µM]	.	.	5%	6%	14%	-6%	1%
CCOc1ccc(N2C(=O)Nc3ccccc3C2(O)C(=O)NCc2ccccc2)cc1 (stereo not drawn)	11%[46.1 µM]	.	.	-12%	.	-1%	0%	.
CN(C(=O)c1cc(S(=O)(=O)N2CCOCC2)cs1)c1ccccc1	1%	.	.	-3%	14%	-12%	-1%	-12%
COc1ccc(C(CC(=O)O)NS(=O)(=O)c2ccc(C)cc2)cc1OC (stereo not drawn)	4%	1.3%	-10%	-3%	-3%	18%	2%	3%
COC(=O)c1ccc(OCC(=O)Nc2nn(-c3ccccc3)nc2C(N)=O)cc1	?	-0.3%	1%	22%	0%	-10%	-2%	1%
O=C(O)CCCNC(=O)c1cncc(O)c1	-4%	0.7%	-6%	5%	-5%	8%	0%	3%
CCOC(=O)Cc1csc(NC(=O)CSc2nc3cccnc3n2CC)n1	15%	1.0%	-2%	?	?	4%	2%	-3%
COc1ccc(C2C=C(c3ccccc3)Nc3nc(NS(=O)(=O)c4ccc(Cl)cc4)nn32)cc1 (stereo not drawn)	2%[46.1 µM]	-1.9%	0%	27%	8%[46.1 µM]	.	.	.
O=S(=O)(Nc1ccccn1)c1ccc(Oc2ccccc2)cc1	-23%	-3.1%	-2%	40%[activator]	-3%	-6%	-3%	-4%
COc1cc(C(=O)N/N=C(\C)Cc2ccccc2)cc(OC)c1OC	?	0.1%	10%	-8%	?	8%	19%	14%
CC(=O)Nc1cccc(NS(=O)(=O)Cc2ccc(Cl)cc2)c1	1%	-1.2%	-2%	3%	-21%	10%	2%	-50%
Cc1ccccc1C(=O)N(C)Cc1ccccc1	-4%	1.6%	8%	0%	9%	9%	6%	?
S=C(c1ccc(N2CCOCC2)cc1)N1CCOCC1	6%	0.6%	-9%	.	0%	3%	13%	1%
COc1ccc2oc(C(=O)NCC(c3ccco3)N(C)C)c(C)c2c1 (stereo not drawn)	0%	.	.	55%[activator]	-7%[46.1 µM]	6%	-4%	.
CNC(=O)C1CC(=O)N(c2ccc(OCC(=O)Nc3ccccc3C)cc2)C1 (stereo not drawn)	5%	.	.	6%	1%	-26%	-2%	.
Cc1cccc(-c2ncc(CN3CCN(CCC(C)C)C(CCO)C3)cn2)c1 (stereo not drawn)	?	.	.	-3%	-20%	-8%	0%	-4%
Cc1nn(C)c(C)c1S(=O)(=O)N1CCC(C(=O)Nc2ccc3c(c2)OCCO3)CC1	.	3.0%	0%	22%	.	8%	1%	-10%
O=C(N/N=C/c1cc2ccccc2nc1Cl)/C(=C/c1cccs1)NC(=O)c1ccccc1	-13%	-6.9%	25µM*	-11%	?	7%	?	27%
COc1ccc(Cn2c(=O)[nH]c3cc(C(=O)N4CCN(c5cccc(Cl)c5)CC4)ccc3c2=O)cc1	?	-2.1%	0%	-22%	10%[46.1 µM]	.	.	.
COc1ccccc1C(=O)Nc1nnc(SCC(=O)NCC2CCCO2)s1 (stereo not drawn)	.	.	.	50%[activator]	.	0%	1%	1%
Cc1ccc(OCC(=O)N/N=C/C=C/c2ccco2)c(Br)c1	-5%[46.1 µM]	.	.	-11%	6%[46.1 µM]	-1%	-10%	5%
N=c1oc2cc(O)ccc2cc1C(=O)Nc1nc2ccccc2s1	?	13µM*	20µM*	?	?	-19%	-4%	-9%
CN(C)[C@@H]1CCC[C@H]1OC(=O)C(c1ccccc1)c1ccccc1	-3%	2.4%	4%	-15%	4%	-6%	22%	-2%
CCCCCCOC(=O)CCn1[nH]c(=O)c2ccccc2c1=O	-4%&-4%[46.1 µM]	0.0%	-15%	-18%	?	?	-26%	-197%
CCN(CC)C(=O)c1cn(-c2cccc(OC)c2)c(=O)c2ccccc12	.	.	.	-6%	.	6%	4%	-1%
CC(C)(C)C(=O)Nc1nnc(CC(=O)NCc2ccccc2)s1	0%[46.1 µM]	.	.	-5%	4%	-2%	1%	1%
Cc1cc(C)n2nc(C(=O)Nc3ccn(Cc4ccccc4C)n3)cc2n1	?	.	.	-24%	7%[46.1 µM]	8%	-1%	-3%
O=C(COC(=O)c1c(F)cccc1F)Nc1ccccc1OC(F)F	-16%[46.1 µM]	.	.	4%	.	4%	-2%	-11%
O=C(Nc1cc(-c2cccc(Cl)c2)nn1-c1ccccc1)c1ccccc1F	.	-1.9%	-26%	-11%	30%[46.1 µM]	.	.	.
CCc1c(C#N)c(SCCC(=O)Nc2ccc(F)cc2)nc2c1C(=O)CC(C)(C)C2	?	-3.0%	-9%	28µM*	?	16%	-9%	-4%
COC(=O)/C=C1/SC(=NC(=O)c2ccc(OC)cc2)NC1=O	.	.	.	-10%	.	-1%	16%	?
Cn1c(CCC(N)=O)nnc1SCC(=O)Nc1cc(S(=O)(=O)N2CCCC2)ccc1Cl	1%	.	.	-8%	12%	6%	-6%	.
CC(Sc1nnc(COc2ccc([N+](=O)[O-])cc2)n1-c1ccccc1)C(=O)O (stereo not drawn)	6%[46.1 µM]	.	.	6%	-8%	-2%	0%	7%
Cc1cccc2c(SCC(=O)NCC3CCCO3)nc(-c3ccc(F)cc3)nc12 (stereo not drawn)	1%	2.7%	2%	.	0%	-3%	1%	-2%

Other records.
Structure	MARV entry inh	Cruzain inh Det	Cruzain noTriton	StopGo reporter	Lassa entry inh	RE007 growth inh	SARS PLpro yeast	NS1 inh
Cc1ccc(NC(=O)C(=O)NCC2(c3ccccc3)CCCC2)cc1C	6%[46.1 µM]	2.2%	?	?	1%[46.1 µM]	.	.	.
O=S(=O)(c1cccs1)N1CCN(c2ccc(Cl)cc2)CC1	6%&-5%[46.1 µM]	-6.8%	-1%	-6%&-10%	-12%&-12%[46.1 µM]	-9%	3%	-11%
COc1ccc2[nH]c(=O)c(CN(CCN3CCCC3)C(=O)Nc3ccccc3Cl)cc2c1	-26%&-26%	-3.0%	-24%	-15%	-10%	-18%	-2%	1%
COc1ccc(S(=O)(=O)NCCc2ccncc2)cc1	.	.	.	93%[activator]	.	8%	5%	10%

Screening results deposited in PubChem by National Center for Advancing Translational Sciences (NCATS).
